# High-throughput results: PubChem, National Center for Advancing Translational Sciences (NCATS)
# hNpr1 antagonist: antagonists of human natriuretic peptide receptor Npr1; HEK293 hNpr1 GloSensor cGMP, ANP-stimulated luminescence; Potency, µM (series often up to 46.3 µM), inactives show at the highest dose activity change, negative = inhibition, usual class: inhibitors; 76,000 compounds, 1.6% hits; active = well fitted inhibition curve with a large enough effect; inconclusive = small, poorly fitted or top-dose-only effect; inactive = no such curve, though single readings can be large or run the other way;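 further: nearly all actives have a fitted effect of over 60% in size; nearly all hits also lower the signal before the agonist is added; a reference antagonist and vehicle were the controls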
# Target sequence (P16066 whole entry, looked up): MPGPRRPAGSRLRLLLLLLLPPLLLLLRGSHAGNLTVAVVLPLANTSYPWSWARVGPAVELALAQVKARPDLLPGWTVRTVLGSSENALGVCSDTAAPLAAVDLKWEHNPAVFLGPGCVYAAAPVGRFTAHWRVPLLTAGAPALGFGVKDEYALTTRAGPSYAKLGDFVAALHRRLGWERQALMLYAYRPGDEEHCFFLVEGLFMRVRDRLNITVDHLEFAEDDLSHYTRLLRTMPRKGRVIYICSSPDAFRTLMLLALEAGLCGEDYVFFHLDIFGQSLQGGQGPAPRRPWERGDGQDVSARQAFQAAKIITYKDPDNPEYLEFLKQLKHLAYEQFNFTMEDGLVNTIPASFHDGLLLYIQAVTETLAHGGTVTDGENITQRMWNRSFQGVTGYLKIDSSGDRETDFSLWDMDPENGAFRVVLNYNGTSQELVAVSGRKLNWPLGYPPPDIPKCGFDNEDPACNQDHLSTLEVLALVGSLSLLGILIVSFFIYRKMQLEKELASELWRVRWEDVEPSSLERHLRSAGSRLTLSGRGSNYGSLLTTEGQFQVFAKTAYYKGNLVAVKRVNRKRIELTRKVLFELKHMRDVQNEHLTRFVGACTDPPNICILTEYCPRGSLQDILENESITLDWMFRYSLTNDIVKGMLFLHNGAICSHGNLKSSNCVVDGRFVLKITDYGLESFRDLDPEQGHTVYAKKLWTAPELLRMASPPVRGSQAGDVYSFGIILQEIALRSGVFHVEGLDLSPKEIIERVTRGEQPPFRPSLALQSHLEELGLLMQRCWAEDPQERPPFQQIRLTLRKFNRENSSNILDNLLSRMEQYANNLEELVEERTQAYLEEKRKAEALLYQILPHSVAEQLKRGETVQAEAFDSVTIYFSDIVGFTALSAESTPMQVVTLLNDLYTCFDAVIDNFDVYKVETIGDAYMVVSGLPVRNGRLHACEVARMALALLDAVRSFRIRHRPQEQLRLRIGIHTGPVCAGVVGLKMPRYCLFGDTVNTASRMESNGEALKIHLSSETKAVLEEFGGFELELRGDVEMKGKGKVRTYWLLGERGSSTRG
#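 HEK293 cells stably expressing human Npr1 and cGMP GloSensor pGS-40F, loaded 2 h with 2% GloSensor reagent, given compound 30 min at room temperature. Luminescence read before and 20 min after 0.1 nM hNppA.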
# Active calls of the source: *; ? = inconclusive; [ ] = remark or other dose. On the % scale 0 is the no-effect control and ±100 the full control effect; potency means the concentration at half of the fitted maximal effect.
SMILES | hNpr1 antagonist
CCc1ccccc1OCCN1CCN(c2ccc(C#N)cc2)C(=O)C1 | -11.0%
CCOc1ccccc1CN1CCC2(CC1)CC(Cc1nc(COC)no1)CCO2 (configuration not stated) | -0.8%
O=C(CCc1cccnc1)N[C@H]1CCOC[C@H]1C1CCOCC1 | -7.1%
Fc1ccc(C2Cn3cnc(-c4nc(-c5ccc6c(c5)OCO6)no4)c3CO2)cc1 (configuration not stated) | -9.8%
O=C(CN1CCCc2nc(C3CC3)ncc2C1=O)NCC1CC1 | -1.9%
CCCc1ccc2oc(C(=O)N(C)Cc3snnc3C)c(C)c2c1 | 1.1%
COc1cccc(-c2n[nH]c3c2CC(=O)N(Cc2ccccc2)C3)c1 | -3.3%[70.6 µM]
CCCn1cnc2c1CN(S(=O)(=O)c1cccc3c(N(C)C)cccc13)[C@H](C(=O)OC)C2 | 4.2%
CCNC(=O)NC[C@@H]1C=C(C)[C@H](CC(=O)NCCOC)C[C@H]1C(C)C | -11.4%[70.6 µM]
CN1C[C@@H](NC(=O)Nc2ccccc2)C[C@H]1c1nc(-c2ccc(F)cc2)no1 | ?
Fc1ccc2c(c1)nc1n2[C@@H](CNCc2cnc3ccccc3c2)COC1 | 35.5µM*
c1ccc(Oc2cc3c(cn2)NCCN(Cc2cnc[nH]2)C3)cc1 | -27.3%[70.6 µM]
O=C(Nc1ccc(-c2nnc3n2CCCC3)cc1)c1ccc(F)cc1F | 1.2%
COC(=O)[C@@H]1Cc2ncn(Cc3ccc(Cl)cc3)c2CN1S(=O)(=O)Cc1ccccc1 | 0.6%
CCc1nc(-c2c3n(c(=O)n(Cc4ccc(OC)cc4)c2=O)CCCCC3)no1 | 4.5%
O=C(CC1CCOCC1)N1CCN(Cc2ccccc2F)CC1 | -5.3%
Cc1cc(C(=O)N[C@@H]2C[C@H](Cn3cc(C4CC4)nn3)[C@@H](O)[C@H]2O)no1 | -1.7%[70.6 µM]
Cc1ccc(-c2ccc3nnc(CNC(=O)c4ccc(C)cc4C)n3n2)cc1 | -1.9%
O=C(O)c1cnc(NCc2cccnc2)nc1-c1ccc(Cl)cc1 | -10.5%
COc1cccc(S(=O)(=O)N2CCCCC2c2nc(-c3cnccn3)n[nH]2)c1 (configuration not stated) | -0.3%

# Part of the list above, as labelled records:
CCc1nc(-c2c3n(c(=O)n(Cc4ccc(OC)cc4)c2=O)CCCCC3)no1
  hNpr1 antagonist: 4.5%
O=C(O)c1cnc(NCc2cccnc2)nc1-c1ccc(Cl)cc1
  hNpr1 antagonist: -10.5%
COc1cccc(S(=O)(=O)N2CCCCC2c2nc(-c3cnccn3)n[nH]2)c1 (configuration not stated)
  hNpr1 antagonist: -0.3%

# Other entries.
SMILES | hNpr1 antagonist
CN(C)C(=O)c1ccc(OC2CCN(C(=O)C3CC3)CC2)nc1 | 2.5%
Cc1cc(C)n(CCC(=O)N2CCC3(CC2)CC(OCC2CC2)CCO3)n1 (configuration not stated) | 6.1%
COc1ccc(C2NC(=O)N(CC(=O)N3CCCCCC3)C3=C2C(=O)OC3)cc1 (configuration not stated) | 3.0%
COc1ccc(C(=O)N2CCC3(CNc4ccccc4[S+](=O)([O-])N3)C2)cc1 (configuration not stated) | -7.6%
COc1ccc(CN[C@@H]2C=C[C@@H](c3c(C)nn(-c4ccc(OC)cc4)c3C)C2)cc1 | -29.6%[70.6 µM]
C[C@@H](NS(=O)(=O)c1ccccc1)c1onc(-c2ccc(F)cc2)c1C(=O)O | 0.6%[70.6 µM]
COCCOC1CCOC2(CCN(C(=O)Nc3ccccc3F)CC2)C1 (configuration not stated) | -1.3%
Cc1cccc(CNCc2ccccc2OCC(O)CN2CCSCC2)c1 (configuration not stated) | ?
N#Cc1ccc(OCc2nc3c(n2Cc2ccccc2)C(=O)N(CC2CC2)CCN3)cc1 | ?
CCCc1nc(C)cc(N2CCC(NCCc3ccc(Cl)cc3)CC2)n1 | 3.8%
O=C1CN(C(=O)[C@H]2CN(Cc3ccccc3)C[C@H]2C(=O)O)CCN1 | 2.9%
O=C(O)c1cccnc1OC1CCNCC1 | 0.1%
NC(=O)NCC(=O)N1CCc2onc(-c3cccc4ccccc34)c2C1 | 4.3%
O=C(O)c1ccnc(-c2ccnc(NCCCN3CCCC(O)C3)n2)c1 (configuration not stated) | 1.7%
O=C(NC[C@H]1O[C@H](Cc2cc(-c3ccccc3)on2)CC[C@@H]1O)c1cnccn1 | -5.0%[70.6 µM]
O=C(c1cccc(C(F)(F)F)c1)N1C[C@@H](CO)[C@H](c2ccccn2)C1 | -0.6%
C=CCn1cc2c3c(cccc31)[C@H](CC(C)C)N[C@H](C(=O)NCc1ccccn1)C2 | -13.0%[70.6 µM]
O=C(NCCN1CCOCC1)c1ccc2c(c1)CC(=O)N2Cc1cccc(F)c1 | -3.2%
O=C(CCc1ccccc1)N1CCC2(CC1)NC(=O)N(c1ccccc1)N2 | 4.4%
CNc1nc2c(c(C(=O)N3CCCC3)n1)CN(C(=O)CN1CCOC1=O)CC2 | 8.4%
Cc1cc(=O)n(CC(=O)Nc2c(C)cccc2C)c(N(C)Cc2ccccc2)n1 | -0.5%
CCN(CC)C(=O)CCC1CCN(c2cc(NC3CC3)ncn2)CC1 | ?
CC1=C[C@@H](CNC(=O)c2cnccn2)[C@H](C(C)C)C[C@H]1CC(=O)N1CCOCC1 | -3.5%[70.6 µM]
C=CCC(=O)N1CCOC(CCCC(C)C)C1 (configuration not stated) | 5.8%
CN(Cc1cnc2ccccc2c1)C(=O)c1ccc(CCC(C)(C)O)cc1 | 2.51µM*
O=C1NC[C@@H](CCC(=O)N2CCN(c3ccccc3)CC2)N2C[C@@H](NCc3ccc(CO)o3)C[C@@H]12 | -1.9%
Cc1ccccc1-c1nocc1CCC(=O)O | -0.1%
COC(=O)C(=O)N1CC[C@H]2NC(=O)N(c3ccccc3)C(=O)[C@H]21 | 4.4%[70.6 µM]
CCOc1ccccc1C(=O)N1CCc2[nH]nc(C(=O)NCCCc3ccccc3)c2C1 | ?
O=C(CCNc1c(-c2ccccc2)nc2cnccn12)NC1CCCC1 | -11.9%
Cc1ccc(NC(=O)C2Cn3cccc3C(=O)N2C)cc1 (configuration not stated) | 4.3%
Cc1cccc(C(=O)NCCc2ncc(C)n2C2CC2)c1 | 1.3%
O=C([C@@H]1C[C@H](F)CN1S(=O)(=O)c1ccccc1F)N1CCCCC1 | -10.0%
CCCc1cc(CNC(=O)c2ccc(N3CCCN(CCC)CC3)nc2)on1 | -19.9%
Cc1ccc(C2Cn3nnc(-c4noc(-c5c(F)cccc5F)n4)c3CO2)cc1 (configuration not stated) | -11.5%
O=C(NC1CC1)[C@@H]1C[C@H](Oc2ccccc2)CN1C(=O)c1ccncc1 | -1.1%
CCCNC(=O)Cc1csc2nc(C)c(-c3cc(C)n(-c4ccc(C)cc4)n3)c(=O)n12 | -1.2%
CC(=O)N1CCC(N2CCOC[C@H]2c2ncc(-c3ccc(C(F)(F)F)cc3)[nH]2)CC1 | -2.0%[70.6 µM]
CCC1Oc2ccc(NC(=O)Cc3ccc(F)cc3)cc2CN(Cc2ccccc2F)C1=O (configuration not stated) | -15.4%
Cc1nnc(-c2cc(-c3cccc(N(C)C)c3)ccn2)n1Cc1ccncc1 | -0.4%[70.6 µM]
O=C1NCCCCCCN(C(=O)c2ccncc2)[C@H]2C[C@H](c3nc(Cc4ccccc4)no3)C[C@@H]12 | -16.7%
COc1cccc(OCc2nnc(C(=O)N3CCC[C@@H]3c3nc4ccccc4[nH]3)n2-c2ccccc2)c1OC | -1.6%
CN1CCC(N(C)C(=O)C2CCN(C(=O)N3CC4CC(C3)[C@H]3CCCC(=O)N3C4)CC2)CC1 (some centres not stated) | 2.5%
COc1cccc(CNC(=O)N2CCCC(Cn3cnc4cccnc43)C2)c1 (configuration not stated) | 1.6%
O=C(CCC(=O)n1ncc2c(Cl)cccc21)N1CCC(Cc2nc(C3CCOCC3)no2)CC1 | 12.6µM*
CN(Cc1ccncc1)Cc1cccn1C | -25.9%[70.6 µM]
C[C@@H]1C(=O)O[C@H]2[C@H]1CC[C@@]1(C)Cc3sc(NC(=O)CC(C)(C)C)nc3[C@@H](C)[C@H]21 | -20.6%[70.6 µM]
CCOCCn1c(=O)[nH]c2cc(C(=O)NCCN3CCCC3=O)ccc21 | 4.4%
Cc1ccc(C(=O)N2CC(c3nnc(C(C)C)o3)C3(CCOCC3)C2)cc1 (configuration not stated) | -1.2%
COc1ccc(CN2CCN(c3ccnc(C)n3)CC2CCO)c(C)c1C (configuration not stated) | 4.3%

# Next part.
SMILES | hNpr1 antagonist
Cc1cnc(CCNC(=O)c2n[nH]c(=O)c3ccccc23)n1C1CCCCC1 | 6.3%
CCCCN(CCC(=O)NCCCOC)C(=O)c1ccoc1 | -3.2%
CCn1ncc(N2CCC(NC(=O)c3ccc(OC)cc3C)CC2)cc1=O | -10.4%
Cc1noc(C)c1Cc1c(C(=O)N2C[C@@H](Oc3cccnc3)C[C@H]2C(N)=O)noc1C | 1.8%
CCOc1ccccc1C1NC(=O)N(CC(=O)Nc2ccc3c(c2)CCC3)C2=C1C(=O)OC2 (configuration not stated) | -19.3%
Cn1cc(C(=O)NCCc2noc(-c3ccncc3)n2)cn1 | 0.0%
COCCN1C(=O)[C@@H]2C[C@@H](CN2C(=O)Nc2ccccc2)Oc2ccccc21 | 3.7%[70.6 µM]
O=C(NCc1cccnc1Oc1ccccc1)c1ccccn1 | -1.3%
CCN(CC)C(=O)CN1C(=O)NC2(CCC(C)CC2)C1=O (configuration not stated) | 2.0%
O=C1N[C@H](CC(=O)N2CCN(CCc3ccncc3)CC2)C(=O)Nc2ccccc21 | 3.9%
CC(C)CC(=O)N1CCCCCC1CN1CCOCC1 (configuration not stated) | 5.6%
CN(Cc1ccccc1)C(=O)[C@H]1C[C@@H](O)[C@H](O)[C@@H]2N=C(Nc3ccc(-n4cccn4)cc3)S[C@@H]21 | 6.0%
COCCN1C(=O)[C@H]2CN(C(=O)c3ccncc3)C[C@H]2C1=O | -1.2%
O=C(Nc1cccn2cnnc12)c1ccc(S(=O)(=O)NCCO)cc1 | 1.6%
COc1ccc(-c2noc(-c3cccn3CC(=O)Nc3ccccc3F)n2)cc1F | 2.0%
O=C(N[C@H]1CCN2C(=O)c3cc(-c4ccsc4)ccc3NC(=O)[C@H]12)C1CCCC1 | 2.1%[70.6 µM]
C=CCN(CC=C)Cc1c(C(=O)N2CCN(C3CCCCC3)CC2)nc2ccccn12 | 13.5%
NC(=O)NCc1cn(C2CCN(Cc3ccc4occc4c3)CC2)nn1 | 16.1%
Cc1cnc(CCNC(=O)CC(C)C)n1Cc1ccc(F)cc1 | 3.4%
COc1ccc(CNC(=O)c2c(C)noc2-c2cccc(F)c2)cc1 | 0.7%
Cc1oc2ccn(Cc3ccccc3F)c(=O)c2c1C(=O)N1CCN(c2ccccc2)CC1 | -4.9%
CCOc1ccccc1CN1CCCOCCNC(=O)[C@@H]2CCCC[C@@H]21 | 0.1%
CN(C1CCc2nn(C)c(=O)n2CC1)S(=O)(=O)c1ccc2c(c1)OCCO2 (configuration not stated) | -0.1%
CS(=O)(=O)c1ccc(CN2CCN3C(=O)N(C4CCOCC4)C[C@H]3C2)cc1 | 1.1%[70.6 µM]
O=C(Cn1nc2c(cc1=O)CCCCC2)Nc1nc(-c2cccnc2)cs1 | -1.0%
Cc1ccccc1S(=O)(=O)N1CCC(CCC(=O)NC2CCS(=O)(=O)C2)CC1 (configuration not stated) | -0.3%
Cc1ccc(NC(=O)CCNc2cnc3cnccn23)cc1F | -13.0%
Cc1cc(C(=O)N[C@@H]2CN(Cc3ccccc3)C[C@H]2CN(C)C)n(C)n1 | -0.9%
O=C(NCc1csc2c1CCCC2)C(c1cccnc1)N1CCOCC1 (configuration not stated) | 2.1%
CC(C)CCN1CC(CN[S+](=O)([O-])c2ccccc2)C2(C1)CN(c1ccccc1)C2 (configuration not stated) | -16.8%[70.6 µM]
Cc1cccc(C)c1-c1nc(C(=O)NCc2ccsc2)n2ccccc12 | -1.7%
O=C(COc1ccccc1)NC1CCc2nnc(C3CC3)n2CC1 (configuration not stated) | 1.1%
COc1ccc(C(C)NC(=O)c2noc(-c3ccc(C)cc3)n2)cc1OC (configuration not stated) | ?
CC(C)(C)CC(=O)N1CC[C@@H](CC(=O)O)[C@@H](CCN2CCN(c3ccccn3)CC2)C1 | 1.6%[70.6 µM]
O=C(CC1CCOC2(CCN(S(=O)(=O)c3ccc(F)cc3)CC2)C1)N1CCCC1 (configuration not stated) | 4.8%
CC1=C[C@@H](CNC(=O)C2CCCCC2)[C@H](C(C)C)C[C@H]1Cc1nc2ccccc2n1C | ?
Cc1ccc(CNC(=O)[C@H]2CCC[C@H]2NC(=O)c2ccncc2)o1 | 4.9%
Cc1ccc(NC(=O)Cn2cccc2-c2nc(-c3ccc4c(c3)OCO4)no2)cc1Cl | -9.5%
CC(C)c1noc(-c2cn(C3CCCN(C(=O)c4nn(C)c5ccccc45)C3)nn2)n1 (configuration not stated) | -0.2%
CO[C@H]1C(=O)N(C(C)C)[C@H]1C1CCN(C(=O)c2nn(C)c3ccccc23)CC1 | 7.2%
COCCc1noc([C@@H]2CC(F)(F)CN2C(=O)c2ccn[nH]2)n1 | -0.9%
COc1ccc(C(=O)Nc2ccc([C@H]3OCC(=O)N(Cc4ccc(F)cc4)[C@@H]3CO)cc2)cc1 | -1.9%
O=C(Nc1cccc(-c2ccc(N3CCCC3)nn2)c1)Nc1cc(F)ccc1F | ?
C=CCNC(=O)Cc1ccc(N(Cc2cccc(F)c2)C(=O)c2ccco2)cc1 | 4.2%
COC(=O)CNC(=O)c1nc(-c2cc(Cl)cc(Cl)c2)c2ccccn12 | -24.7%

# This is a subset; the hit share may differ from the screen's.
